Ecoli rRNA inh – inhibitors of bacterial rRNA selective over humanized ribosomes; E. coli WT GFP vs humanized-ribosome RFP mutants, fluorescence, 24 h; active compounds read low; DMSO median 0, no signal -100; GFP signal change (wild-type ribosome), % (test concentration not listed); 350,000 tested, 1.6% active;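 active = significant combined selectivity score with lowered wild-type GFP, culture density cut under 30%, mutant RFP and density less affected; inactive = any of these conditions unmet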; note: one replicate is shown; some compounds called inactive have numbers as strong as hits
Ecoli rRNA inh OD600 – also measured in Ecoli rRNA inh; calls as there; OD600 change, %; measured here: OD600 growth;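 optical density of the mix in the first replicate; 0 = DMSO median and -100 = no signal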
Ecoli rRNA inh RFP – recorded beside Ecoli rRNA inh, whose call it bears; RFP signal change, %; measured here: RFP humanized mutant strains;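 first replicate; 0 = DMSO median and -100 = no signal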
* marks the source's active call; other numbers are inactive results; & = joins results of further samples. A portion of the library; the hit share may differ from the screen's.

nr	Ecoli rRNA inh	Ecoli rRNA inh OD600	Ecoli rRNA inh RFP	smiles
1	3	7	1.2	CNC[C@H]1Oc2ccc(NC(=O)Cc3ccccc3)cc2CC(=O)N([C@H](C)CO)C[C@@H]1C
2	9	-40	19	O=C(c1ccccc1)N1CC(=O)N2[C@@H](CO)[C@H](c3ccc(/C=C/c4ccccc4)cc3)[C@@H]2C1
3	-3&-1	-6&4	0.1&-3.0	CC(C)NC(=O)N1[C@@H]2CN(CC(F)(F)F)C[C@H]1C2c1ccccc1 (stereo partly specified)
4	0	10	2.4	C[C@H]1CCCCO[C@@H](CN(C)CC2CCCCC2)[C@@H](C)CN([C@@H](C)CO)C(=O)c2cc(NC(=O)c3ccncc3)ccc2O1
5	0	0	-0.3	COCC(=O)N[C@H]1C=C[C@@H](CC(=O)N2CCCCC2)O[C@@H]1CO
6	6	8	-2.9	CN(C[C@@H]1[C@H](c2ccccc2)[C@H](CO)N1C(=O)C1CC1)C(=O)c1ccccn1
7	3	2	-0.6	C[C@@H]1CCCCO[C@H](CN(C)CC2CCCCC2)[C@@H](C)CN([C@H](C)CO)C(=O)c2cc(NC(=O)CCCN(C)C)ccc2O1
8	1	5	0.1	O=C(C1CC1)N1CC[C@@H]2[C@H]1c1cc(Br)ccc1N[C@@H]2CO
9	5	1	-2.7	CC(C)[C@H]1CCc2cnnn2COC[C@@H](c2ccccc2)NC1=O
10	2	1	0.8	O=C(C[C@H]1CC[C@H](NC(=O)Nc2ccc3c(c2)OCO3)[C@H](CO)O1)NCCCN1CCOCC1
11	6	-1	-1.7	CNC[C@H]1OCCCC[C@H](C)Oc2ccc(NS(=O)(=O)c3ccccc3)cc2C(=O)N([C@@H](C)CO)C[C@@H]1C
12	3	-2	0.1	C[C@H](O)C#Cc1cnc2c(c1)C(=O)N([C@H](C)CO)C[C@@H](C)[C@H](CN(C)Cc1ccc(-c3ccccc3)cc1)O2
13	2	4	2.1	C[C@H](CO)N1C[C@H](C)[C@@H](CN(C)C(=O)c2ccncc2)Oc2ncc(C#CC3CCCC3)cc2C1=O
14	-3	-7	-0.2	C[C@H]1CN(C)C(=O)Cc2ccccc2O[C@@H]1CN(C)C(=O)OC(C)(C)C
15	-4	-4	0.9	C/C=C/c1ccc([C@H]2[C@@H](CO)N(C(=O)CC)[C@@H]2CNC(=O)CC2CC2)cc1
16	-9	-5	-0.6	C[C@@H]1CN([C@@H](C)CO)C(=O)c2cc(NC(=O)Nc3ccc(F)cc3)ccc2O[C@@H]1CN(C)C(=O)Nc1ccc(C(F)(F)F)cc1
17	0	2	-1.9	C[C@H]1CN([C@@H](C)CO)C(=O)c2cc(C3=CCCCC3)cnc2O[C@H]1CN(C)S(=O)(=O)c1cn(C)cn1
18	-3	1	-0.4	CCCC#Cc1ccc2c(c1)[C@@H]1[C@@H](CCN1C(=O)C1CC1)[C@@H](CO)N2
19	1	-11	-1.6	CC(=O)N(C)C[C@H]1Oc2cc(C3=CCCCC3)ccc2S(=O)(=O)N([C@@H](C)CO)C[C@@H]1C
20	-2	-8	-1.1	CO[C@@H]1CN(C)C(=O)c2cc(NS(=O)(=O)c3cn(C)cn3)ccc2OC[C@@H](C)N(C)C[C@@H]1C

Among those listed so far, these contain a carbonyl joined to an NH by a bond outside any ring:
nr	Ecoli rRNA inh	Ecoli rRNA inh OD600	Ecoli rRNA inh RFP	smiles
1	3	7	1.2	CNC[C@H]1Oc2ccc(NC(=O)Cc3ccccc3)cc2CC(=O)N([C@H](C)CO)C[C@@H]1C
3	-3&-1	-6&4	0.1&-3.0	CC(C)NC(=O)N1[C@@H]2CN(CC(F)(F)F)C[C@H]1C2c1ccccc1 (stereo partly specified)
4	0	10	2.4	C[C@H]1CCCCO[C@@H](CN(C)CC2CCCCC2)[C@@H](C)CN([C@@H](C)CO)C(=O)c2cc(NC(=O)c3ccncc3)ccc2O1
5	0	0	-0.3	COCC(=O)N[C@H]1C=C[C@@H](CC(=O)N2CCCCC2)O[C@@H]1CO
7	3	2	-0.6	C[C@@H]1CCCCO[C@H](CN(C)CC2CCCCC2)[C@@H](C)CN([C@H](C)CO)C(=O)c2cc(NC(=O)CCCN(C)C)ccc2O1
10	2	1	0.8	O=C(C[C@H]1CC[C@H](NC(=O)Nc2ccc3c(c2)OCO3)[C@H](CO)O1)NCCCN1CCOCC1
15	-4	-4	0.9	C/C=C/c1ccc([C@H]2[C@@H](CO)N(C(=O)CC)[C@@H]2CNC(=O)CC2CC2)cc1
16	-9	-5	-0.6	C[C@@H]1CN([C@@H](C)CO)C(=O)c2cc(NC(=O)Nc3ccc(F)cc3)ccc2O[C@@H]1CN(C)C(=O)Nc1ccc(C(F)(F)F)cc1

Next section:
nr	Ecoli rRNA inh	Ecoli rRNA inh OD600	Ecoli rRNA inh RFP	smiles
21	-2	6	-2.8	Cc1noc(C)c1NC(=O)N(C)C[C@H]1OCc2ccccc2-c2ccccc2C(=O)N([C@@H](C)CO)C[C@H]1C
22	1	0	-2.2	COCC(=O)N1[C@H](CN(C)C(=O)c2ccccc2)[C@@H](c2ccccc2)[C@@H]1CO
23	-1	10	-1.9	C[C@@H]1CN(C)C(=O)Cc2cc(N(C)C)ccc2O[C@H]1CN(C)S(C)(=O)=O
24	-2	-1	-1.1	C/C=C/c1ccc([C@@H]2[C@H]3CN(C(=O)c4ccc(F)cc4)CC(=O)N3[C@H]2CO)cc1
25	0	7	2.4	CC(C)CN(C[C@H]1N[C@@H](CO)[C@@H]1c1ccc(-c2cncnc2)cc1)C(=O)C1CC1
26	0	3	-0.8	C[C@H]1CN(C)C(=O)c2ccccc2O[C@H]1CN(C)S(C)(=O)=O
27	0	3	-2.4	C[C@H]1CN(C)C(=O)Cc2cc(N)ccc2O[C@H]1CN(C)S(C)(=O)=O
28	2	9	-3.2	C[C@H]1CN([C@@H](C)CO)C(=O)c2cc(-c3ccncc3)cnc2O[C@H]1CN(C)C(=O)C1CCC1
29	4	6	-0.7	C/C=C/c1cnc2c(c1)C(=O)N([C@H](C)CO)C[C@@H](C)[C@@H](CN(C)Cc1ccc3c(c1)OCO3)O2
30	-1	-6	5.2	Cc1ccccc1-c1ccc([C@H]2[C@H](CO)N3C(=O)CN(C(=O)c4cccnc4)C[C@@H]23)cc1
31	4	1	0.6	C=C(C)C[C@@H]1CCn2cc(nn2)COCCNC1=O
32	-1	-12	-3.4	CCCC(=O)Nc1ccc2c(c1)C(=O)N(C)C[C@@H](OC)[C@@H](C)CN(Cc1ccc(F)cc1)[C@H](C)CO2
33	2	9	0.6	Cc1ccc(S(=O)(=O)N(C)C[C@H]2Oc3c(NS(=O)(=O)c4cn(C)cn4)cccc3C(=O)N([C@H](C)CO)C[C@H]2C)cc1
34	-2	3	2.0	C[C@@H]1CN([C@@H](C)CO)C(=O)c2cc(NC(=O)Nc3ccccc3)ccc2O[C@@H](C)CCCCO[C@@H]1CN(C)C(=O)Nc1ccccc1
35	1	12	-3.6	Cc1ccc(S(=O)(=O)N(C)C[C@H]2OCc3cn(nn3)CCCC(=O)N([C@H](C)CO)C[C@H]2C)cc1
36	-4	0	2.2	C[C@H]1CN([C@@H](C)CO)C(=O)c2cc(NS(=O)(=O)c3cccs3)ccc2O[C@@H]1CN(C)S(=O)(=O)c1cccs1
37	2	1	2.9	C[C@@H]1CN([C@H](C)CO)C(=O)c2cc(NC(=O)C3CCCCC3)ccc2O[C@H]1CN(C)Cc1ccc(Oc2ccccc2)cc1
38	-1	5	-1.2	C/C=C/c1cnc2c(c1)C(=O)N([C@H](C)CO)C[C@@H](C)[C@@H](CN(C)C(=O)C1CC1)O2
39	3	10	0.5	C[C@@H]1CN([C@@H](C)CO)C(=O)c2cccc(NS(=O)(=O)c3ccc(Cl)cc3)c2O[C@H]1CN(C)S(=O)(=O)c1cn(C)cn1
40	1	-2	0.7	Cc1ccc(S(=O)(=O)Nc2cccc3c2O[C@@H](CN(C)Cc2ccc(Cl)c(Cl)c2)[C@@H](C)CN([C@@H](C)CO)C3=O)cc1
41	-1	1	-0.7	CNC(=O)C[C@H]1CC[C@@H]2[C@@H](COc3ccc(NC(=O)c4ccc(F)cc4)cc3C(=O)N2C)O1
42	3	12	-0.8	COc1ccc(S(=O)(=O)N(C)C[C@H]2Oc3ccc(NS(=O)(=O)c4cn(C)cn4)cc3C(=O)N([C@@H](C)CO)C[C@@H]2C)cc1
43	-1	0	1.0	CC(C)NC(=O)N(C)C[C@@H]1Oc2ccc(NS(=O)(=O)c3cccs3)cc2C(=O)N([C@H](C)CO)C[C@@H]1C
44	5	12	-2.4	C[C@H]1CN([C@@H](C)CO)C(=O)c2cc(-c3ccncc3)cnc2O[C@@H]1CN(C)C(=O)C1CCC1
45	8	9	-1.1	C[C@@H]1CN([C@H](C)CO)C(=O)c2cc(NC(=O)Cc3ccccc3)ccc2O[C@@H](C)CCCCO[C@H]1CN(C)C
46	3	7	-0.6	CCCC#Cc1ccc([C@@H]2[C@@H](CO)N3C(=O)CN(C(=O)c4cccc(F)c4)C[C@H]23)cc1
47	7	6	-4.4	C[C@@H](O)C#Cc1ccc2c(c1)O[C@@H](CN(C)CC1CC1)[C@@H](C)CN([C@@H](C)CO)S2(=O)=O
48	2	10	-4.3	COc1ccc(CNC(=O)C[C@@H]2CC[C@@H]3[C@@H](COc4ccc(NC(=O)C(C)C)cc4C(=O)N3C)O2)cc1
49	3	7	0.5	C[C@@H]1CN(C)C(=O)c2cccc(NS(C)(=O)=O)c2O[C@H]1CN(C)S(C)(=O)=O
50	-6	-11	3.6	CO[C@H]1CN(C)C(=O)c2ccc(NC(=O)c3ccc(F)cc3)cc2OC[C@H](C)N(C(=O)CC2CC2)C[C@H]1C
51	-3	-5	-2.0	CO[C@H]1CN(C)C(=O)c2cc(NS(=O)(=O)c3cn(C)cn3)ccc2OC[C@H](C)N(C)C[C@H]1C
52	0	5	-3.4	COc1ccc2c3c(n(C)c2c1)[C@H](CO)N(C(=O)c1ccc(F)cc1)CC31CN(C(C)=O)C1
53	-6	-10	-0.3	O=C(c1ccccc1F)N1C[C@H]2[C@@H](c3ccccc31)[C@@H](CO)N2C(=O)Nc1ccccc1
54	5	10	-0.6	CNC[C@H]1OCCCC[C@@H](C)Oc2ccc(NS(=O)(=O)c3ccc(F)cc3)cc2C(=O)N([C@@H](C)CO)C[C@H]1C
55	1	6	-2.0	O=C(O)[C@@H]1[C@@H](CO)[C@@H]2Cn3c(ccc(-c4ccc(F)cc4)c3=O)[C@@H]2N1C(=O)Nc1ccccc1
56	6	7	1.1	C[C@H](CO)N1C[C@H](C)[C@@H](CN(C)C(=O)C2CCOCC2)Oc2ncc(C#Cc3cccc(F)c3)cc2C1=O
57	1	22	0.9	O=C(Nc1ccccc1)N1CCCCN2[C@H](CO)[C@@H](c3ccc(C#Cc4ccccn4)cc3)[C@@H]2C1
58	-54	-77	-7.3	O=S(=O)(Cc1ccccc1)N1[C@@H]2CNC[C@H]1C2c1ccc(/C=C/c2ccccc2)cc1 (stereo partly specified)
59	2	2	0.0	C[C@H]1CN(C)C(=O)Cc2ccccc2O[C@H]1CN(C)C
60	-19	-47	20	C[C@H](CO)N1C[C@H](C)[C@@H](CN(C)Cc2ccccc2)Oc2c(NC(=O)CCC(F)(F)F)cccc2C1=O

Reformatted with each value named: part of the list above.
42: COc1ccc(S(=O)(=O)N(C)C[C@H]2Oc3ccc(NS(=O)(=O)c4cn(C)cn4)cc3C(=O)N([C@@H](C)CO)C[C@@H]2C)cc1
- Ecoli rRNA inh = 3
- Ecoli rRNA inh OD600 = 12
- Ecoli rRNA inh RFP = -0.8
43: CC(C)NC(=O)N(C)C[C@@H]1Oc2ccc(NS(=O)(=O)c3cccs3)cc2C(=O)N([C@H](C)CO)C[C@@H]1C
- Ecoli rRNA inh = -1
- Ecoli rRNA inh OD600 = 0
- Ecoli rRNA inh RFP = 1.0

(more compounds)
nr	Ecoli rRNA inh	Ecoli rRNA inh OD600	Ecoli rRNA inh RFP	smiles
61	5	13	-1.0	CNC[C@@H]1Oc2ncccc2C(=O)N(C)C[C@H]1C
62	-1	11	-1.8	COCC(=O)N1[C@H](CN(C)C(=O)c2cccnc2)[C@@H](c2ccccc2)[C@@H]1CO
63	1	6	-3.1	CN1C(=O)c2cc(NC(=O)Nc3ccccc3)ccc2OC[C@H]2O[C@@H](CC(=O)O)CC[C@H]21
64	0	2	2.1	CO[C@@H]1CN(C)C(=O)c2ccc(NC(=O)c3ccccc3)cc2OC[C@@H](C)N(C(=O)C2CC2)C[C@@H]1C
65	3	2	-1.8	O=C(N[C@H]1CC[C@H](CCn2cc(C3CCCC3)nn2)O[C@H]1CO)c1cccnc1
66	-6	-7	-0.5	C[C@@H]1CC=CCCNC(=O)[C@@H](Cc2ccccc2)N(C)C(=O)c2ccccc2O1 (mixture of isomers)
67	-3	1	-3.3	CCCC(=O)Nc1ccc2c(c1)OC[C@@H](C)N(C(=O)c1ccccc1F)C[C@H](C)[C@H](OC)CN(C)C2=O
68	-2	3	-0.2	C[C@@H]1CN([C@H](C)CO)S(=O)(=O)c2ccc(-c3ccc(F)cc3)cc2O[C@@H]1CN(C)Cc1ccccc1C(=O)O
69	-10	-5	3.9	C[C@H](CO)N1C[C@H](C)[C@H](CN(C)C(=O)Nc2ccc(F)cc2)Oc2ncc(-c3ccc(F)cc3)cc2C1=O
70	0	1	-2.4	COC(=O)C[C@H]1C[C@H]2c3cc(NC(=O)Nc4ccc(OC)cc4)ccc3O[C@H]2[C@@H](CO)O1
71	0	3	-2.1	C[C@@H]1CCCCO[C@H](CN(C)Cc2ccccc2)[C@H](C)CN([C@@H](C)CO)C(=O)c2cc(NC(=O)CCCN(C)C)ccc2O1
72	1	7	1.2	C[C@@H]1CN([C@H](C)CO)C(=O)c2cccc(NS(=O)(=O)c3ccc(F)cc3)c2O[C@H]1CN(C)Cc1ccc(Oc2ccccc2)cc1
73	2&4	0&-1	1.7&-1.9	NCC[C@@H]1CC[C@@H](NC(=O)c2ccccc2F)[C@@H](CO)O1
74	-5	-20	2.9	CCCNC(=O)Nc1ccc2c(c1)C(=O)N(C)C[C@H](OC)[C@@H](C)CN(Cc1ccccc1)[C@H](C)CO2

Source: PubChem (Broad Institute)
